Ba CapD inh: CapD enzyme inhibition; 0.23% of 140,000 active; z-score (test concentration not listed); AID 492967; purified CapD enzyme, fluorescence intensity read-out; active compounds read low; some hits fall short of the stated cut;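 active = z-score under -4 in either of two replicates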;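 also: stock transfer was 100 nL into about 40 µL; score is relative to mean and spread of the plate; one replicate is shown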
AID504770: growth inhibitors of E. coli YBA685 in a screen for V. cholerae RctB (chromosome II replication) inhibitors; z-score (no concentration beside the values); 0.27% of 130,000 active; E. coli YBA685 rctB-dependent plasmid, OD600 growth, 3 h; active compounds read low; AID 504770;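 active = z-score under -2 on both plates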;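 also: wells of about 30 µL received 100 nL stock; score is relative to mean and SD of the test wells; the first replicate is given; strong numbers were not always called active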
The depositor's hits bear a star; i = inactive; . = not tested or not shown; & = joins results of further samples. An unsorted share of the library. Share with any hit: about 0.37%.

SMILES | Ba CapD inh | AID504770
CC1CCCCN1S(=O)(=O)c1ccc(S(=O)(=O)NCc2ccc(F)cc2)cc1 (stereo not drawn) | . | 0.3
Cn1c(=O)c(C(=O)NCCc2ccccc2)cc2cccnc21 | . | 0.45
CC1CCCC(NC(=O)COC(=O)Cc2cccs2)C1C (stereo not drawn) | . | 0.3
Cc1cc(/C=N/n2c(SCC(=O)O)nnc2-c2ccoc2C)cc(C)c1O | . | -1.65
CC(C)(CNc1ccc(S(=O)(=O)N2CCCC2)cn1)N1CCCCC1 | . | -0.7
c1ccc(-c2nc(-n3ccnc3)nc(-n3ccnc3)n2)cc1 | -1.18 | 0.35
O=S1(=O)CCN(CCc2c[nH]c3ccccc23)CC1 | 0.165 | -0.25
CC1(C)Cc2c(ccc3ccccc23)/C(=C/C#N)N1 | 2.75 | .
Cc1ccsc1CNn1cnnc1SCc1ccc(Cl)cc1 | 0.07 | -0.8
CC1CCCN(S(=O)(=O)c2ccc3[nH]c(=O)cc(C(=O)NCCc4ccccc4)c3c2)C1 (stereo not drawn) | 0.35 | 0.05

3 compounds out of the list, ordered by molecular weight, descending.
SMILES | Ba CapD inh | AID504770
Cc1ccsc1CNn1cnnc1SCc1ccc(Cl)cc1 | 0.07 | -0.8
CC1CCCC(NC(=O)COC(=O)Cc2cccs2)C1C (stereo not drawn) | . | 0.3
O=S1(=O)CCN(CCc2c[nH]c3ccccc23)CC1 | 0.165 | -0.25

Additional structures.
SMILES | Ba CapD inh | AID504770
COC(=O)C(Cc1cn(C(c2ccccc2)(c2ccccc2)c2ccccc2)cn1)NC(=O)Cc1nc(-c2ccccc2)oc1C (stereo not drawn) | 0.18 | .
O=C(O)C1C(C(=O)NCc2ccccc2)C2(Br)c3ccccc3C1(Br)c1ccccc12 (stereo not drawn) | -0.17 | .
CN1CCN(NC(=O)CCN2C(=O)/C(=C\c3ccccc3)SC2=S)CC1 | 4.76 | -0.55
NC(=O)COC(=O)c1ccc(Br)o1 | -0.34 | -0.25
Cc1cccc(NC(=O)c2cc3c(ccc4ccccc43)oc2=O)c1 | i | -0.25
Cc1ccc2nc(-c3ccc(O)cc3O)cn2c1 | . | -0.4
CCOC=Nc1c(C(=O)OCC)sc2nc(SC)ncc12 | 10.9 | -0.9
CC(=O)[C@@]1(O)CCC2C3C=C(Cl)C4=CC(=O)[C@@H]5CC5[C@]4(C)C3CC[C@@]21C (stereo partly drawn) | -0.045 | -0.1
S=C(NCCN1CCOCC1)Nc1ccccc1 | 0 | -1.9
COc1ccc(NC(C)C(=O)N2CCOCC2)c(OC)c1 (stereo not drawn) | . | 0.7
O=C(Nc1ccc(N2CCCCC2)cc1)Nc1ccccc1OC(F)(F)F | -0.85 | -0.45
Cc1ccc(C(=O)C(NC(=O)c2ccco2)Nc2ccc(C)c(Cl)c2)cc1 (stereo not drawn) | 0.04 | 0.15
CS(=O)(=O)Nc1cc(-c2nnc(Nc3ccccc3)c3ccccc23)ccc1N1CCOCC1 | -0.22 | -0.5
O=C(CC(C(=O)N1CCc2ccccc21)n1ccnc1)NC1CCCC1 (stereo not drawn) | -0.15 | 1.7
COc1cc(C2C(N3C(=O)c4ccccc4C3=O)C(=O)N2c2ccc(C)c(Cl)c2)cc(OC)c1OC (stereo not drawn) | 0.28 | .
CCCCCCCc1ccc(NC(=O)Nc2ccc(F)cc2)cc1 | -0.23 | .
COc1ccc(NC(=O)c2cc3n(n2)C(C(F)(F)F)CC(c2ccc(OC)c(OC)c2)N3)cc1OC (stereo not drawn) | -0.195 | .
NC(N)=Nc1nc2cc(Cl)ccc2o1 | . | -0.7
S=C(NC1CCCCC1)N(Cc1ccccc1)CC1CC=CCC1 (stereo not drawn) | -0.58 | -0.3
CCOC(=O)CSc1nc2sc3c(c2c(=O)n1Cc1ccccc1)CCN(C)C3 | 65.1 | .
COc1ccc(OC)c(NC(=O)CNC(=O)Cn2cnc3ccccc3c2=O)c1 | 0.305 | -0.3
COc1cc(/C=C2\C(=O)NC(=O)N(c3ccc(F)cc3)C2=O)ccc1OCC(=O)O | 0.255 | .
COc1cc(OC)c(C(=O)OCC(=O)N(C)C2CCCCC2)cc1OC | . | 0.65
CCOC(=O)c1cnc(SCC(=O)OC)nc1N | . | -0.45
C1=CC2c3ccccc3NC(c3ccncc3)C2C1 (stereo not drawn) | 0.19 | -0.6
O=C(OCC(=O)c1ccccc1Br)c1ccco1 | -0.035 | -0.2
COC(=O)c1c2c(c[n+](C)c1C)COC(C)OC2 (stereo not drawn) | 11.1 | 0.25
CS(=O)(=O)c1ccc(CSc2ccccc2NC(=O)Nc2ccccc2C(F)(F)F)cc1 | -0.075 | .
CC1CCN(C(=O)CSc2c3c(nc4ccccc24)CCCC3)CC1 | 0.165 | 0
Cn1c(=O)c2c(SC/C(O)=C(\C#N)c3nc4ccccc4[nH]3)nc(C(C)(C)C)nc2n(C)c1=O | . | -0.35
COc1ccc(-c2[nH]nc3c2C(c2ccc(C(F)(F)F)cc2)C(C#N)=C(N)O3)cc1OC (stereo not drawn) | -0.215 | .
COc1cc(C(=O)NCc2nc(-c3ccccc3C)no2)cc(OC)c1OC | 0.38 | 0.45
O=C1C2C3C=CC(C3)C2C(=O)N1c1ccc(-c2cnc(-c3ccc(N4C(=O)C5C6C=CC(C6)C5C4=O)cc3)nc2)cc1 (stereo not drawn) | 1.77 | .
Oc1ccccc1C(C#Cc1ccccc1)N1CCCCC1 (stereo not drawn) | 0.335 | 0.6
O=C(NCCN1C(=O)S/C(=C\c2ccc(F)cc2)C1=O)c1cc(F)c(F)c(F)c1F | 0.875 | 0.35
Cc1ccc(-c2noc(CNC(=O)c3ccc4c(c3)OCO4)n2)cc1 | -0.65 | -0.3
CCOC(=O)Cc1csc(SC(C)C#N)n1 (stereo not drawn) | . | -0.05
COc1ccc(CCNC(=O)CSc2nc(N)cc(N)n2)cc1 | . | -0.3
CCOC(=O)C(O)C(C)(C)CN1C(=O)c2ccccc2C1=O (stereo not drawn) | . | -0.7
O=C(NCCNc1ncnc2scc(-c3ccccc3)c12)c1cccs1 | -0.18 | 0.65
CCOC(=O)C(=O)N1c2ccccc2C(C)(c2ccccc2)CC1(C)C (stereo not drawn) | -0.055 | .
COc1ccc(Sc2cc3ccccc3nc2-c2ccc(Cl)cc2)cc1 | 0.96 | .
CC(C)C1N=C2c3ccccc3N=C(SCc3ccccc3F)N2C1=O (stereo not drawn) | -0.365 | 0.05
O=[N+]([O-])c1ccc(Oc2cccnc2)nc1 | -1.12 | .
O=C(CN1C(=O)CCC1=O)Nc1ccc2c3c(cccc13)CC2 | 0.78 | 0.65
CSc1nsc(SC)c1C#N | -0.66&-0.43 | 0.25
Cc1ccc(CN2CCC(CNC(=O)Nc3cc(C)cc(C)c3)C2)cc1 (stereo not drawn) | 0.09 | -0.8
COC(=O)NCC(c1cccnc1)N1CCN(c2ccccc2)CC1 (stereo not drawn) | . | 0.15
N=C1/C(=C/c2cccn2-c2ccc(Br)cc2)C(=O)N=C2SC=CN12 | 68 | 0
COc1ccccc1C(=O)NC1CCN(C)CC1 | 0.045 | -0.8

Other results.
SMILES | Ba CapD inh | AID504770
O[C@@H]1CC2C3C[C@H](O)C4C3CC2C41 (stereo partly drawn) | 0.175 | 0.4
CCCCCC1C(O)CCC1CC(=O)OC (stereo not drawn) | . | 0.3
CCOc1ccc2c(c1)-c1c(ssc1=S)C(C)(C)N2C(=O)C(Cc1ccccc1)N1C(=O)c2ccccc2C1=O (stereo not drawn) | -0.49 | .
Cc1cc(S(=O)(=O)N(C)Cc2ccccc2)ccc1-n1cnnn1 | . | -0.4
CCOc1ccccc1NC(=O)CCN1C(=O)NC2(CCCC2)C1=O | . | -0.15
COCCOC(=O)C1=C(C)NC2=C(C(=O)CC(c3ccc(OC)c(OC)c3)C2)C1c1ccc(OC)c(OC)c1 (stereo not drawn) | 0.87 | .
Cc1ccc(Nc2nc(COC(=O)c3ccc(-n4cnnn4)cc3)cs2)cc1 | . | 0.8
c1ccc(-c2ccc(-c3nc4ccccc4nc3-c3ccccc3)cc2)cc1 | 40.6 | .
O=C(c1cccc(N2C(=O)C3C4C=CC(C4)C3C2=O)c1)N1CCN(c2ccccc2F)CC1 (stereo not drawn) | 0.26 | -0.35
O=S(=O)(c1ccccc1)c1nc(-c2cccs2)oc1NCc1cccnc1 | . | -0.35

Structures above that have a cyano group (5):
SMILES | Ba CapD inh | AID504770
CC1(C)Cc2c(ccc3ccccc23)/C(=C/C#N)N1 | 2.75 | .
Cn1c(=O)c2c(SC/C(O)=C(\C#N)c3nc4ccccc4[nH]3)nc(C(C)(C)C)nc2n(C)c1=O | . | -0.35
COc1ccc(-c2[nH]nc3c2C(c2ccc(C(F)(F)F)cc2)C(C#N)=C(N)O3)cc1OC (stereo not drawn) | -0.215 | .
CCOC(=O)Cc1csc(SC(C)C#N)n1 (stereo not drawn) | . | -0.05
CSc1nsc(SC)c1C#N | -0.66&-0.43 | 0.25

Going on with the list:
SMILES | Ba CapD inh | AID504770
Cn1c2c(c(=O)n(C)c1=O)CN(C1CC1)CN2 | -0.23 | .
CC(C)Nc1nc2cc(Cl)ccc2s1 | -0.445 | -1.05
COc1ccccc1CNC1CCCC1 | . | -1.45
CCOC(=O)c1nc(N)nc(Nc2ccccc2)n1 | -0.255 | 1.5
Cc1ncc(CO)c2cc(C(=O)Nc3ccccc3S(N)(=O)=O)c(=O)oc12 | 2.4 | -0.65
Cc1c(C(=O)NCCN2CCOCC2)sc2nc3n(c(=O)c12)CCCC3 | 0.345 | 0.3
Cc1nc2cc(C(=O)NCc3ccco3)ccc2n1-c1ccc(OCc2ccccc2)cc1 | -0.02 | .
CCn1c(=O)n(CC(=O)N2CCN(Cc3ccc4c(c3)OCO4)CC2)c(=O)c2ccccc21 | 2.22 | .
COc1ccc(NC(=O)C(c2ccccc2)N(C)C(=O)c2ccc(=O)[nH]c2)cc1 (stereo not drawn) | -0.545 | -0.1
COC(=O)CNC(c1ccccc1)c1cc(Br)ccc1NC(=O)CN1CCOCC1 (stereo not drawn) | . | -0.55
CCCCC(c1nnnn1C(C)C)N1CCN(c2ccc(F)cc2)CC1 (stereo not drawn) | . | -0.9
CC(C)NC1CCC(C(C)(C)C)CC1 (stereo not drawn) | . | -0.55
Cc1cc(C(F)(F)F)nn1Cc1ccc(C(=O)O)cc1 | -0.045 | -0.95
Cc1ccc(Sc2cc(N3CCOCC3)nc(-c3ccccc3)n2)cc1 | 0.325 | .
COc1ccc(NC(=O)c2ccc(N3C(=O)C4CC=C(Cl)CC4C3=O)cc2)cc1 (stereo not drawn) | -1.29 | .
CCOC(=O)c1sc(NC(=O)C(C)Sc2nnc(CNC(=O)c3ccco3)n2C2CCCCC2)c(C(=O)OCC)c1C (stereo not drawn) | 0.105 | .
O=C1CCC(=O)N1OCC1CCCN2CCCCC12 (stereo not drawn) | 0.165 | 0.35
COc1ccccc1NC(=O)N1CCCN(Cc2ccc(F)cc2)CC1 | 0.905 | -0.7
CC1(C)c2ssc(=S)c2-c2ccccc2N1C(=O)CN1C(=O)CCC1=O | -0.26 | .
CC1(C)OC2[C@H](n3cnc4c(N)ncnc43)O[C@H](CO)[C@H]2O1 (stereo partly drawn) | -0.035 | -0.2
COc1ccc(COC(=O)NC(Cc2c[nH]c3ccccc23)C(=O)OC(C)(C)C)cc1 (stereo not drawn) | -0.45 | .
C=CCn1c(CCCN2C(=O)c3cccc4cccc(c34)C2=O)nnc1SCC(=O)OCC | 35.6 | .
COc1ccc(OC)c(-c2n(C)c3ccccc3[n+]2C)c1 | 0.6 | 0.85
COc1cccc2cc(C(N)=O)/c(=N/c3sc4c(c3C(N)=O)CCCC4)oc12 | 0.535 | .
CC(C)N(C(=O)N1CCN(c2ccnc3cc(Cl)ccc23)CC1)C(C)C | 0 | 0.6
O=C(Cn1ncc2c3ccccc3n(Cc3ccc(Cl)cc3)c2c1=O)NC1CC1 | 1.77 | 0.6
COC(=O)c1ccc(C(=O)Nc2ccc(C(F)(F)F)cc2)nc1 | -0.555 | 2.9
Cc1cccc(C)c1OCCN1C(=O)c2ccccc2C1(O)c1ccccc1 (stereo not drawn) | -0.49 | -0.75
c1ccc(CNCCCSc2ncccn2)cc1 | . | -0.5
CCOc1ccc(S(=O)(=O)NC2CC(C)(C)NC(C)(C)C2)c2ccccc12 | 0.535 | 0.55
Cc1ccc(C(=O)OCC(N)=O)cc1C | . | 0.6
O=C(Cc1ccc(-n2c(=S)[nH]c3ccccc3c2=O)cc1)NCCc1ccccc1 | 1.25 | -0.35
Cc1ccc(-n2nc3c(c2NC(=O)c2ccc(S(=O)(=O)N4CCOCC4)cc2)CS(=O)(=O)C3)c(C)c1 | -0.64 | .
COC(=O)/C(=C\Nc1ccccc1)NC(=O)c1ccc(Cl)cc1Cl | -0.795 | .
CCOC(=O)N1CCC(NC(=O)C(NC(=O)C2CCCCC2)C(C)C)CC1 (stereo not drawn) | 0.25 | -0.25

A second format for part of the listing above.
SMILES	Ba CapD inh	AID504770
Cc1ccc(-n2nc3c(c2NC(=O)c2ccc(S(=O)(=O)N4CCOCC4)cc2)CS(=O)(=O)C3)c(C)c1	-0.64	.
COC(=O)/C(=C\Nc1ccccc1)NC(=O)c1ccc(Cl)cc1Cl	-0.795	.

Screening data deposited in PubChem BioAssay by ICCB-Longwood Screening Facility, Harvard Medical School.
